# Screening results (PubChem)
# H5N1 CPE: MDCK cell protection from H5N1 avian flu; cytopathic effect, luminescence, 72 h; stronger effect = higher value; no value below 0 was filed and about half of the inactive calls have no number; reference of the scale not given here; inhibition, % at 50 µM; 96,000 compounds, 0.07% hits; AID 740, 2007; in the data active = inhibition above about 25%
# The depositor's hits bear a star; i = inactive.
SMILES	H5N1 CPE
COc1ccccc1Cc1noc(C(C)(C)NC(=O)c2ccccc2)n1	0.3
CCOC(=O)c1ccc(-n2c(N)c(C(=O)NCC3CCCO3)sc2=S)cc1 (configuration not stated)	i
Cc1ccc(CNc2oc(C)nc2C#N)cc1	1.5
Cc1cc(-n2c(C)cc(C(=O)CN3C(=O)NC4(CCCCC4)C3=O)c2C)no1	i
C=CCNC(=S)NNC(=O)C(CCC(C)C)CC(C)(C)O (configuration not stated)	0.5
Cc1ccc(CSc2nnc(CS(=O)Cc3ccc(Cl)cc3Cl)n2C)cc1 (configuration not stated)	i
Brc1ccc(-c2csc(/N=C/N3CCOCC3)n2)cc1	i
Cc1ccc(C(=O)Nc2nc(C(C)(C)C)cs2)s1	i
O=C(Nc1ccc(Cl)cc1)N(Cc1cccnc1)Cc1ccco1	i
CC1(C)CNC(=O)c2sc(NC(=O)CN3CCOCC3)nc2C1	i
CCCCN1C(=O)CCC(C(=O)O)C1c1ccccc1 (configuration not stated)	0.3
O=C(Nc1ccccc1)NC1CS(=O)(=O)CC1O (configuration not stated)	i
COCCCNCCCOc1ccc(Cl)cc1Br	i
COc1ccc(C)cc1NC(=O)CN1C(=O)c2ccccc2S1(=O)=O	0.5
COC(=O)[C@H]1C2CCC(C(=O)OC)(CC2)[C@H]1C(=O)OC	0.6
CN(C)C(=O)c1cc(F)ccc1Sc1cc(Cl)ccc1Cl	i
O=C(CCSc1nc(-c2ccco2)cc(C(F)(F)F)n1)Nc1ccc2c(c1)OCO2	i
OC(C#CCN1CCCCC1)c1ccccc1 (configuration not stated)	i
Oc1sc(C=Nc2ccc(F)cc2)c2ccccc12	i
Cc1cccc(C)c1NC(=O)C1(N(Cc2ccco2)C(=O)CC2NC(=O)NC2=O)CCCC1 (configuration not stated)	0.3
Cc1ccc(-c2noc(CCC(=O)NCCCN3CCN(c4ccc(F)cc4)CC3)n2)cc1	0.2
O=c1cccc2n1CC1CC2CN(Cc2c(F)cccc2Cl)C1 (configuration not stated)	1.8
O=C(c1oc2ccccc2c1CSCc1ccccc1)N1CCN(c2ncccn2)CC1	0.2
O=C(Cn1c(SCC(=O)N2CCc3ccccc3C2)nc2ccccc21)NC1CCCC1	0.2
CCn1c2c(c3cc(Cl)ccc31)CCCC2=O	1.2
Cc1cccc(C)c1OCC(=O)Nc1cccc(-c2nnc(-c3ccccc3)o2)c1	i
Cc1ccc(CN2CCN(CC(=O)N3CCC4(CC3)OCCO4)C2=O)cc1	0.4
Cc1cc(N2CCN(c3ccccc3)CC2)nc(NCc2ccccc2)n1	i
c1ccc(-c2ccc(OCCCn3cncn3)cc2)cc1	i
COc1cccc(C2=NO[C@@H]3C(=O)N(Cc4ccccc4)C(=O)[C@H]23)c1OC	i
CCOC(=O)c1sc2ncn(/N=C/c3cccnc3)c(=O)c2c1C	0.4
COC(=O)C(O)(CC(=O)Nc1ccc(OC(F)(F)F)cc1)C(F)(F)F (configuration not stated)	1.3
CC1CCCC(NC(=O)CSc2nnnn2C)C1C (configuration not stated)	1.2
CCSc1nnc(NC(=O)CSc2ncccn2)s1	2.2
CC(NC(=O)C1CCC1)c1ccccc1 (configuration not stated)	0.3
COCCN(C(=O)CN1CCc2ccccc2C1)c1c(N)n(Cc2ccccc2)c(=O)[nH]c1=O	i
CCCCP(=O)(O)CCC(=O)O	i
CCc1ccc(S(=O)(=O)NCc2cn3c(C)csc3n2)s1	2.8
O=C(c1ccc(F)cc1)N1CCN(C2CC3CCC2C3)CC1 (configuration not stated)	0.4
COc1cc(CNCc2ccccn2)ccc1OCC(N)=O	0.1

# Reformatted: entries from further up
CC(NC(=O)C1CCC1)c1ccccc1 (configuration not stated)
  H5N1 CPE = 0.3
COCCN(C(=O)CN1CCc2ccccc2C1)c1c(N)n(Cc2ccccc2)c(=O)[nH]c1=O
  H5N1 CPE = i
CCCCP(=O)(O)CCC(=O)O
  H5N1 CPE = i
CCc1ccc(S(=O)(=O)NCc2cn3c(C)csc3n2)s1
  H5N1 CPE = 2.8

# Following part
SMILES	H5N1 CPE
COc1ccc(NC(=O)c2cccnc2N2CCCC2)cc1	1.1
O=C(COc1ccccc1N1C(=O)c2ccccc2C1=O)c1ccc(Cl)cc1	i
CN(C)c1cc2c(c(N(C)C)c1)C(=O)c1ccccc1C2=O	i
CC(C(=O)N1CCOCC1)N1c2cccc3cccc(c23)S1(=O)=O (configuration not stated)	0.0
Brc1ccc(-c2cn3c(n2)CCc2ccc4cccnc4c2-3)cc1	i
CC(C)OC(=O)C(CC(=O)O)N1CCOCC1 (configuration not stated)	i
Cc1ccc(C(=O)NCCn2cc(SCC(=O)Nc3nnc(C)s3)c3ccccc32)cc1	i
Cc1ccc(Nc2nc(N)nc(CSc3ncccn3)n2)cc1	0.1
CCCC1=C(C(=O)OCC)C(c2c(C)nn(-c3ccccc3)c2Cl)C(C#N)=C(N)O1 (configuration not stated)	i
COc1ccc2nc3oc(C(=O)NCc4cccs4)cc3cc2c1	0.8

# Molecules above that contain a cyano group (2):
SMILES	H5N1 CPE
Cc1ccc(CNc2oc(C)nc2C#N)cc1	1.5
CCCC1=C(C(=O)OCC)C(c2c(C)nn(-c3ccccc3)c2Cl)C(C#N)=C(N)O1 (configuration not stated)	i

# (further entries)
SMILES	H5N1 CPE
Cn1c(=O)c(=O)n(C)c2cc(S(=O)(=O)N3CCC(Cc4ccccc4)CC3)ccc21	1.0
COC(=O)c1ccc(Cn2cnc3c(sc4nc(N5CCOCC5)c5c(c43)CCCC5)c2=O)o1	i
COCC(=O)Nc1nc2n(n1)C(c1ccccc1)CC(c1ccc(OC)cc1)N2 (configuration not stated)	0.7
CCc1ccc(NC(=O)CS(=O)CC(=O)NCC2OCCc3ccccc32)cc1 (configuration not stated)	0.8
Cc1cccc2cc(C(c3nnnn3Cc3ccccc3)N3CCN(c4ccccc4)CC3)c(=O)[nH]c12 (configuration not stated)	i
COc1cccc(C(c2nnnn2Cc2ccc(F)cc2)N2CCC(C(N)=O)CC2)c1OC (configuration not stated)	0.6
CCn1c2ccccc2c2cc(C3N=C(N)Nc4nc5ccccc5n43)ccc21 (configuration not stated)	i
Cc1cc(NC(=O)c2cncc(Br)c2)no1	i
CC(C)OC(=O)CC1=NC(=O)CS1	i
O=C(O)C1CC=CCC1C(=O)NCCc1cccc(Cl)c1 (configuration not stated)	i
CCCC(=O)NCCCCNC(=O)CCC	1.1
Cn1nc(-c2ccc(C(=O)N3CCN(CCO)CC3)cc2)c2ccccc2c1=O	0.6
Cc1cc(C(=O)CSc2nnnn2-c2ccc(Cl)cc2)c(C)n1CC1CCCO1 (configuration not stated)	0.3
COc1ccc(COCC(O)CN2CC(C)OC(C)C2)cc1OC (configuration not stated)	i
C=CCn1c(SCc2nc3ccccc3[nH]2)nnc1-c1ccncc1	i
COc1ccc(C(=O)N/N=C/c2cccc3cccnc23)cc1	i
CC(C)=C(NC(=O)c1ccccc1)C(=O)NCCCC(=O)O	i
CCN1CCN(c2ncc(C(=O)Nc3cc(Cl)ccc3OC)c3ccccc23)CC1	i
Cc1ccc(S(=O)(=O)N2CCC(CN3C(=O)c4cccc5cccc(c45)C3=O)CC2)cc1	i
Cc1occc1C(=O)Nc1cccnc1	2.6
CC1CCN(C(=O)CCc2ccc(S(=O)(=O)NC(C)(C)C)cc2)CC1	0.4
COc1cc(-c2nc3cnccc3n2C)cc(OC)c1OC	0.5
CCCCOC(=O)C1CCC[C@@H](C)N1 (some centres not stated)	0.7
CC(=O)Oc1ccccc1C(=O)Oc1ccc(/C=N/n2cnnc2)cc1	i
Cc1ccc(S(=O)(=O)N(C)Cc2nc(-c3ccccn3)no2)cc1	i
CCC(=O)N(C)/C=C1\Sc2ccccc2C1=O	i
CC(=O)c1ccc(OCCCC(=O)OCC(=O)N2CCN(c3ccccc3)CC2)cc1	i
Cc1nc2ccccc2n1CCc1nc2c3ccccc3nc(SCC#N)n2n1	0.9
O=c1cc(N2CCc3ccccc3C2)[nH]c(=O)n1Cc1ccc(F)cc1	i
Cc1cc(C)c(NC(=O)CN(c2ccccc2)S(=O)(=O)N(C)C)c(C)c1	1.0
CC1(C(=O)CSc2nc3ccccc3s2)CCC(=O)O1 (configuration not stated)	1.1
Cc1ccc2c(c1)[C@H]1OCC[C@H]1[C@@H](c1ccncc1)N2	2.8
CCOC(=O)C(NCc1ccccc1OC)(NC(=O)c1ccccc1)C(F)(F)F (configuration not stated)	i
O=C(OCn1ncc(Br)c(Br)c1=O)c1c(F)cccc1F	i
CC(=O)c1c(N)nc2n(c1=O)CCCCC2	0.4
CSc1nc2c(c(=O)n1Cc1ccccc1)SC(C)C2 (configuration not stated)	i
COc1ccc2cc(C(c3nnnn3C(C)(C)C)N3CCc4ccccc4C3)c(=O)[nH]c2c1 (configuration not stated)	i
O=C1C2C(C(=O)N1CCc1ccccc1)C1C=CC2C12CC2 (configuration not stated)	i
C=CCn1c(C)cc(C(=O)CSc2nnc(-c3cccc(S(=O)(=O)N(CC)CC)c3)o2)c1C	1.2
Cc1[nH]c(=O)[nH]c(=O)c1S(=O)(=O)N1CCCC(C(=O)NCCc2ccccc2)C1 (configuration not stated)	0.2

# 2 entries from above, reformatted:
O=C(OCn1ncc(Br)c(Br)c1=O)c1c(F)cccc1F
  H5N1 CPE = i

C=CCn1c(C)cc(C(=O)CSc2nnc(-c3cccc(S(=O)(=O)N(CC)CC)c3)o2)c1C
  H5N1 CPE = 1.2

# (cont.)
SMILES	H5N1 CPE
Cc1ccc(NC(=O)COC(=O)CCC(=O)c2cccs2)cc1S(=O)(=O)N1CCOCC1	i
COc1ccc(-c2[nH]c(-c3cccc(OC)c3)nc2SCC(=O)NCc2ccco2)cc1	0.9
COc1cccc(-c2nnc(SCC(=O)Nc3ccc4c(c3)OCCO4)n2Cc2ccco2)c1	i
CC(C)(C)CC(C)(C)NC1=CC(=O)OC12CCCCC2	i
COc1ccc(OC)c(-n2cnnn2)c1	i
N=c1sc2c(n1Cc1ccccc1)CCCC2	i
Cc1sc2ncnc(NCCc3ccc(S(N)(=O)=O)cc3)c2c1C	0.2
N#Cc1c(NC(=O)CSc2ccccn2)oc(-c2ccccc2)c1-c1ccccc1	1.8
COc1cccc(-c2cc3c(=O)n(-c4ccccc4)c(=S)[nH]c3s2)c1	i
CCCOc1ccc(N2C(=O)CC(N3CCN(c4ccccc4F)CC3)C2=O)cc1 (configuration not stated)	i
Cc1ccc(S(=O)(=O)C2(C(=O)Nc3cccnc3)CC2)cc1	0.4
Cn1c(=O)c2c(nc(Br)n2CC(=O)C23CC4CC(CC(C4)C2)C3)n(C)c1=O	0.9
Brc1cccc(-c2nnc3sc(CNCc4ccco4)cn23)c1	5.0
CCOc1cc(NC2CS(=O)(=O)CC2O)c(OCC)cc1NC(=O)c1ccccc1 (configuration not stated)	3.1
CCOC(=O)Nc1cccc(OCC(=O)Nc2ccccc2OCC)c1	0.0
Cc1nc(CS(=O)c2ccc(Cl)cc2)cc(NCc2ccc(Cl)cc2Cl)n1 (configuration not stated)	i
Cc1ccc(Cc2cnc(NC(=O)CN3CCOCC3)s2)cc1Cl	i
Cc1cc(NC(=O)CSc2nc(C(C)C)nc3sc(C)c(C)c23)no1	i
Cc1nc(NCC2CCCO2)c2nnn(Cc3ccccc3Cl)c2n1 (configuration not stated)	i
Cc1ccc(-c2cc(-c3nnc(SCC(=O)NC(C)C(C)C)n3N)c3ccccc3n2)cc1 (configuration not stated)	0.9
COc1ccc2c(c1)CCc1c(C(=O)N3CCCc4ccccc43)noc1-2	0.6
COc1ccc(CNC(=S)Nc2ccccc2C)cc1	0.3
COc1ccc(OC(=O)c2cc(S(=O)(=O)N3CCCC3)ccc2Cl)cc1	0.1
Cn1c(=O)c2c(nc(NCC3CCCO3)n2Cc2cccc(Br)c2)n(C)c1=O (configuration not stated)	i
CCCc1noc2c1C(c1ccoc1)C(C#N)=C(N)N2 (configuration not stated)	i
CC(=O)Nc1ccc2c(c1)N(C(=O)CN(C)C)c1ccccc1CC2	i
CC(=O)c1cccc(S(=O)(=O)N2CCN(c3nc4cc(C)cc(C)c4cc3C#N)CC2)c1	3.5
COc1ccc(C(CC(=O)Nc2nccs2)n2cccc2)cc1 (configuration not stated)	i
O=C(NC(O)C(=O)c1cccs1)c1cccnc1 (configuration not stated)	i
O=C(C1CCCN(Cc2ccc3c(c2)OCO3)C1)N1CCCC1 (configuration not stated)	i
Nc1c(C(=O)NC2CCCC2)c2nc3ccccc3nc2n1/N=C/c1ccco1	i
COC(=O)C1C(=O)C=C(N2CCOCC2)CC1(C)C (configuration not stated)	0.1
CCOc1ccc(CCNC(=O)Cn2c(-c3nonc3N)nc3ccccc32)cc1OCC	0.8
Cc1ccc2c(CSc3nncs3)cc(=O)oc2c1	2.4
CC(=NCCO)c1c(O)n(C)c(=O)n(C)c1=O	1.9
O=C(Cn1cnc2c(cnn2-c2ccccc2)c1=O)c1ccc(Cl)cc1	2.1
COC(=O)C1C(=O)c2c([nH]c(C(=O)OC3CCCC3)c2C)CC1C (configuration not stated)	0.3
Cc1ccc(C)c(NS(=O)(=O)c2cc(C(=O)NCCSC3CCCCC3)ccc2C)c1	2.5
CCOc1ccc2c(C)nc(NC3=NC(C)(C)C=C(C)N3)nc2c1	i
CN1CCN(CC(=O)Nc2ccc(Cl)cc2Cl)CC1	0.7
COC(=O)c1sc(N)c(C(=O)OC)c1CSc1nnc(-c2ccccc2Cl)n1C	2.1
CCOC(=O)C1CCN(C(c2ccccn2)c2c(C)[nH]c3ccccc23)CC1 (configuration not stated)	4.2
CC(NC(=O)c1ccc(F)cc1)c1nc2ccccc2n1Cc1ccccc1F (configuration not stated)	i
Cc1cc(NC2C3CC4CC(C3)CC2C4)n2nnnc2n1 (configuration not stated)	2.1

# Not all compounds are listed (hit frequency here may not be typical).
